Screening data deposited in PubChem by ICCB-Longwood Screening Facility, Harvard Medical School.
PV pol inh – inhibitors of poliovirus RNA polymerase binding and polymerization; P03300; poliovirus polymerase elongation, fluorescence polarization; stronger effect = lower value; % elongation, % (compound at 16.7 µg/mL); 150,000 tested, 0.66% active; AID 588519; in the data active = % elongation below about 90%; note: some results filed as inactive read as strong as hits
Target sequence (P03300 1749-2209 limits assumed): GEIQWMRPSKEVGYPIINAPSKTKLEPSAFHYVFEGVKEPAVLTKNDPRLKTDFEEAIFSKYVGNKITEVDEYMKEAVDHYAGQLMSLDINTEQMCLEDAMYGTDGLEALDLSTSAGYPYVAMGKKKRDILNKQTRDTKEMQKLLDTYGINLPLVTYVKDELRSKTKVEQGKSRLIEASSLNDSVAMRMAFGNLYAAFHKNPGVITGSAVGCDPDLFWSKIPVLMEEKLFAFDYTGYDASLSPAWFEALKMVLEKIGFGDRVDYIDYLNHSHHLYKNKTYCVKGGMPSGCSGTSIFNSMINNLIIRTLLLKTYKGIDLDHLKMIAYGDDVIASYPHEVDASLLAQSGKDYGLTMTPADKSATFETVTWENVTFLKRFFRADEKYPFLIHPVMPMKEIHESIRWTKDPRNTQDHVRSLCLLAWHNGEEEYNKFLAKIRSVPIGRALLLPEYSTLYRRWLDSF
PV pol inh intensity – recorded beside PV pol inh, whose call it bears; % elongation; measured here: total intensity read-out; formula for this scale not given here;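 total fluorescence in place of polarization; lower means less elongation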
Active calls of the source: *. This is a subset. The share of hits here may be higher or lower than overall.

Values run as follows: PV pol inh	PV pol inh intensity
- COc1ccc(Cn2ccc3nc(C)c(C(=O)N4CCN(c5cccc(OC)c5)CC4)cc3c2=O)cc1
 : 106	115
- COc1ccc(OC)c(NC(=O)c2cc3cccc(OC)c3oc2=O)c1
 : 109	107
- COc1ccc(-n2nc(C(=O)Nc3ccc(Br)cc3C)c3c4ccccc4n(C)c3c2=O)cc1
 : 112	111
- COc1ccc2c(c1)CC(NC(=O)Nc1cc(Cl)ccc1OC)CO2 (centres undefined)
 : 112	114
- COc1ccccc1C(=O)NC(=O)Nc1ccc(-n2nc(C(F)(F)F)cc2C(F)(F)F)cc1
 : 105	106
- O=c1n(Cc2ccccc2Cl)c2ccccc2c2nc(-c3ccccc3)nn12
 : 104	106
- CCC(CC)C(=O)Nc1nnc(S(=O)(=O)N2c3ccccc3CC2C)s1 (centres undefined)
 : 114	112
- O=C(NCCSc1c[nH]c2ccccc12)c1ccc(Cl)cc1
 : 105	107
- COc1ccc(CNC(=O)CN2N=C(c3ccc(Cl)cc3)CCC2=O)cc1
 : 111	114
- Cc1cc(C)c(NC(=O)Cn2ccn(-c3cccc(Cl)c3)c(=O)c2=O)c(C)c1
 : 111	109
- CCOc1ccc(NC(=O)Cc2ccc(NC(=O)N3CCCCc4ccccc43)cc2)cc1
 : 106	108
- CCCCCCC(=O)Nc1cc2nc3c(nc2cc1C)c(=O)n(C)c(=O)n3C
 : 109	104
- CC(C)(C)OC(=O)N1CCC(c2nnc(SCc3ccccc3)o2)CC1
 : 99	99
- Cc1ccc(CNC(=O)c2c[nH]n3c(=O)c(Cc4ccc(F)cc4Cl)c(C)nc23)cc1
 : 102	104
- Cc1ccc(C(=O)N2CCC(C)CC2)cc1NC(=O)c1nsc2ccccc12
 : 108	112
- CC(C)(C)c1ccc(C(=O)Nc2ccc(Cl)cc2C(=O)c2ccccc2)cc1
 : 103	105
- Cn1c(=O)c2c(-c3ccccc3)n3c(c2n(C)c1=O)C(c1ccc([N+](=O)[O-])cc1)Nc1ccccc1-3 (centres undefined)
 : 107	117
- CCCCN(CCCC)C(=O)c1cc2c(=O)n3cccc(C)c3nc2s1
 : 98	102
- Cc1ccc(-n2c(C)nc3c(cnn3-c3ccccc3C)c2=O)cc1F
 : 105	103
- Cc1ccc(CSC2=Nc3ccccc3C3=NC(CC(=O)NC4CCCCC4)C(=O)N23)cc1 (centres undefined)
 : 116	122
- COc1ccc(S(=O)(=O)N2CCC(c3nc4ccccc4s3)CC2)cc1OC
 : 100	106
- Cn1c(=O)c2c(nc(NCCc3ccccc3)n2Cc2cccc(Br)c2)n(C)c1=O
 : 113	115
- O=C(c1cccs1)N1CCCc2cc(NS(=O)(=O)c3ccc(F)cc3F)ccc21
 : 109	113
- COc1ccc(Cn2ccc3nc(C)c(C(=O)Nc4cc(OC)c(OC)c(OC)c4)cc3c2=O)cc1
 : 115	106
- Cc1cccc(C(=O)Nc2ccc(S(=O)(=O)N3CCC(c4nc5ccccc5s4)CC3)cc2)c1
 : 108	113
- CCOC(=O)Cn1c(=O)oc2cc(S(=O)(=O)N3CCN(c4ccc(Cl)cc4)CC3)ccc21
 : 102	107
- CCN(CC)c1ccc(NC(=O)CN2CCN(CC(=O)Nc3ccc(Cl)cc3)CC2)cc1
 : 95	94
- CCCCS(=O)(=O)c1oc(-c2cccs2)nc1S(=O)(=O)c1ccc(F)cc1
 : 106	107
- COc1ccc(S(=O)(=O)c2cn(C)c3cc(N4CCCCCC4)c(F)cc3c2=O)cc1
 : 111	112
- CCN1CCN(C(c2cccc(F)c2)c2c(O)cc(C)n(CCOC)c2=O)CC1 (centres undefined)
 : 105	109
- CCOc1ccc(C2C(C(=O)OC)=C(C)NC3=C2C(=O)c2ccccc23)cc1OC (centres undefined)
 : 105	104
- CC(=O)Nc1cccc(-c2nnc(SCC(=O)c3ccc([N+](=O)[O-])cc3)o2)c1
 : 106	106
- Cc1ccc2c(c1)N(C(=O)Nc1cccc(C)c1C)CCO2
 : 103	107
- COc1ccc(N2C(=O)CSC23C(=O)N(Cc2ccc(C)cc2)c2ccccc23)cc1Cl (centres undefined)
 : 113	99
- COc1ccc(CCNC(=O)CCc2c(C)c3cc4c(C)coc4c(C)c3oc2=O)cc1OC
 : 104	97
- Cc1ccccc1C(=O)NCc1nc2cccnc2n1Cc1ccccc1
 : 110	109
- COc1ccc(-n2nc(C(=O)N3CCN(c4ccc(F)cc4)CC3)c3c4ccccc4n(C)c3c2=O)cc1
 : 112	108
- O=C(CSc1nc(=O)[nH]c2c1CCCC2)NCc1ccc(F)cc1
 : 107	102
- COc1ccc2[nH]cc(CCN=C(NC(=O)c3cccc(Cl)c3)Nc3nc(C)cc(C)n3)c2c1
 : 107	109
- COc1ccc(C)cc1NC(=O)c1ccc2c(SCC(=O)O)c3c(nc2c1)CCCC3
 : 104	107
- CCc1ccc(-n2c(=O)c3ccc(C(=O)NCCc4ccccc4)cc3n(CC(N)=O)c2=O)cc1
 : 99	104
- CCCc1cc(=O)[nH]c(SCc2nc(-c3ccc(OCC)cc3)no2)n1
 : 104	104
- COc1ccc(N2CC(NC(=O)/C=C\c3ccc4c(c3)OCO4)CC2=O)cc1OC (centres undefined)
 : 105	90
- O=C(NCCS(=O)(=O)N1CCN(c2ccccc2F)CC1)C1CC(=O)N(c2ccccc2)C1 (centres undefined)
 : 113	112
- Cc1cc(C)c(NC(=O)CCCN2C(=O)COc3ccc(C)cc32)c(C)c1
 : 105	107

Fetched by structure from the list above (3):
Values run as follows: PV pol inh	PV pol inh intensity
- Cc1ccccc1C(=O)NCc1nc2cccnc2n1Cc1ccccc1
 : 110	109
- CCOc1ccc(C2C(C(=O)OC)=C(C)NC3=C2C(=O)c2ccccc23)cc1OC (centres undefined)
 : 105	104
- CCc1ccc(-n2c(=O)c3ccc(C(=O)NCCc4ccccc4)cc3n(CC(N)=O)c2=O)cc1
 : 99	104

Compound profiles (already shown). Order of screens: PV pol inh | PV pol inh intensity
Entry for COc1ccc(N2CC(NC(=O)/C=C\c3ccc4c(c3)OCO4)CC2=O)cc1OC (centres undefined) = 105 | 90
Entry for CCOc1ccc(C2C(C(=O)OC)=C(C)NC3=C2C(=O)c2ccccc23)cc1OC (centres undefined) = 105 | 104
Entry for Cc1ccc2c(c1)N(C(=O)Nc1cccc(C)c1C)CCO2 = 103 | 107

New compounds follow
Values run as follows: PV pol inh	PV pol inh intensity
- CCc1nc2nc(C)cc(Nc3ccc(F)c(Cl)c3)n2n1
 : 102	103
- CCC(C)NC(=O)Cn1c(=O)n(CCCC(=O)NCc2ccc(C)cc2)c(=O)c2ccccc21 (centres undefined)
 : 112	113
- Cc1ccccc1C(=O)Oc1c(Sc2ccccc2)c(C)nn1C(C)(C)C
 : 108	111
- CCN1CCSc2ccc(C(=O)NCc3cccc(Br)c3)cc21
 : 107	109
- Cc1ccc(C)c(CNS(=O)(=O)c2ccc3c(c2)C(C)(C)C(=O)N3C)c1
 : 109	111
- NS(=O)(=O)c1ccc(NC(=O)C2Cc3ccccc3N2C(=O)c2ccccc2)cc1 (centres undefined)
 : 105	106
- Cc1ccc2c(c1)-c1nc(-c3ccc(Cl)cc3)cc(-c3coc4ccccc4c3=O)c1CO2
 : 102	98
- Cc1ccc(-c2onc(C)c2C)cc1S(=O)(=O)NCc1ccco1
 : 109	113
- O=C(Nc1cc(F)ccc1F)c1ccc2c(c1)nnn2C1CCCC1
 : 96	104
- Cc1cc(C)cc(NC(=O)CC(C)n2nc(C)cc2C)c1 (centres undefined)
 : 101	105
- COc1cccc(NC(=O)CCc2nnc3n(CC(C)C)c(=O)c4ccccc4n23)c1
 : 106	110
- CCCCOC(=O)c1ccc(NS(=O)(=O)c2c(C)nc3scc(C)n3c2=O)cc1
 : 103	106
- COc1cccc2[nH]c(C(=O)NCc3ccc4c(c3)CCN4C(=O)c3ccc(F)cc3)cc12
 : 109	110
- Cc1oc2c(c1C(=O)NCc1cccc(Br)c1)C1=NCCN1C=N2
 : 106	109
- CC(C)c1ccc(NC(=O)CSC2=Nc3ccccc3C3=NC(CCC(=O)NC4CCCCC4)C(=O)N23)cc1 (centres undefined)
 : 111	115

COc1cccc(CNC(=O)CCn2c(=O)c3cccn3c3ccc(F)cc32)c1OC
  PV pol inh: 104
  PV pol inh intensity: 106
Cc1ccc(N=C2NC(=O)CC(C(=O)Nc3cc(C(F)(F)F)ccc3Cl)S2)cc1 (centres undefined)
  PV pol inh: 105
  PV pol inh intensity: 103
CCOc1ccc(CNC(=O)c2sc3ncnc(N(C)C4CCCCC4)c3c2C)cc1
  PV pol inh: 107
  PV pol inh intensity: 112
O=C(Nc1cccc(C(F)(F)F)c1)c1cc2nc(-c3ccc4c(c3)OCO4)cc(C(F)(F)F)n2n1
  PV pol inh: 104
  PV pol inh intensity: 105
CCCN(C(=O)c1cn(C)c(=O)c2cc(OC)c(OC)cc12)c1ccc(CC)cc1
  PV pol inh: 105
  PV pol inh intensity: 110
CCOC(=O)COc1ccc(/C=C(\C#N)c2nc3ccc(C)cc3[nH]2)cc1OC
  PV pol inh: 104
  PV pol inh intensity: 114
Cc1cc(Nc2ccccc2Cl)n2nc(-c3ccco3)nc2n1
  PV pol inh: 107
  PV pol inh intensity: 104
COc1cccc(CNC(=O)CN2C(=O)CCn3nc(-c4cn(C)c5ccccc45)cc32)c1OC
  PV pol inh: 104
  PV pol inh intensity: 104
O=c1c(S(=O)(=O)c2ccccc2)cn(Cc2ccc(F)cc2)c2cc(N3CCCC3)c(F)cc12
  PV pol inh: 107
  PV pol inh intensity: 110
Cc1nc2ncnn2c(C)c1CCC(=O)NCc1ccc(Cl)cc1
  PV pol inh: 107
  PV pol inh intensity: 106
Fc1ccc(Nc2nc(-c3cccc(Cl)c3)c3c(n2)-c2ccccc2OC3)cc1
  PV pol inh: 116
  PV pol inh intensity: 115
Cc1ccc(-n2nnnc2CNC(=O)c2ccccc2)cc1C
  PV pol inh: 113
  PV pol inh intensity: 104
CC(=O)N1CCc2cc(CNC(=O)Nc3ccc(Br)c(C)c3)ccc21
  PV pol inh: 108
  PV pol inh intensity: 116
Cc1ccc(-c2sc(C(=O)Nc3ccc(Br)cc3)cc2CC(=O)O)cc1
  PV pol inh: 108
  PV pol inh intensity: 109
CCOC(=O)c1oc2c(c1C)-c1nn(Cc3ccccc3Cl)cc1CC2
  PV pol inh: 103
  PV pol inh intensity: 107
COc1ccc2cc(CNc3ccc(OC)c(OC)c3)c(=O)n(CC(=O)Nc3ccc(C)cc3)c2c1
  PV pol inh: 107
  PV pol inh intensity: 103
COc1ccc(-c2nc(Cn3c(SCc4cccc(F)c4)nc4cccnc43)c(C)o2)cc1
  PV pol inh: 107
  PV pol inh intensity: 111
O=C(Cn1c(=O)nc(-c2ccccc2)c2cc(Cl)ccc21)N1CCN(c2ccccc2F)CC1
  PV pol inh: 105
  PV pol inh intensity: 107
COCCN1CN=C(NS(=O)(=O)c2ccc(C)cc2)NC1
  PV pol inh: 101
  PV pol inh intensity: 108
CCOc1ccc(CNC(=O)CCS(=O)(=O)c2ccc3c(c2)oc(=O)n3C)cc1
  PV pol inh: 109
  PV pol inh intensity: 115
COc1cccc(-n2c(=O)c3c(C)c(C(=O)N(C)C)sc3n(Cc3ccc(F)cc3Cl)c2=O)c1
  PV pol inh: 110
  PV pol inh intensity: 113
COc1ccccc1Nc1c2c(nc3ccc(NC(=O)/C=C/c4cccc(OC)c4OC)cc13)CCCC2
  PV pol inh: 106
  PV pol inh intensity: 110
Cc1cccc(CSc2nc3ccncc3n2Cc2ccc(C(=O)O)cc2)c1
  PV pol inh: 108
  PV pol inh intensity: 108
Cc1ccc(NC(=O)c2oc3ccc(S(=O)(=O)N4CCCCC4)cc3c2C)cc1C
  PV pol inh: 109
  PV pol inh intensity: 113
CCOC(=O)N1CCC(NC(=O)c2cnn(-c3ccc(C)cc3)c2-n2cccc2)CC1
  PV pol inh: 108
  PV pol inh intensity: 114

Another view of some results above.
structure | PV pol inh | PV pol inh intensity
Cc1ccc(-c2sc(C(=O)Nc3ccc(Br)cc3)cc2CC(=O)O)cc1 | 108 | 109
CCOC(=O)c1oc2c(c1C)-c1nn(Cc3ccccc3Cl)cc1CC2 | 103 | 107
COc1ccc2cc(CNc3ccc(OC)c(OC)c3)c(=O)n(CC(=O)Nc3ccc(C)cc3)c2c1 | 107 | 103
COc1ccc(-c2nc(Cn3c(SCc4cccc(F)c4)nc4cccnc43)c(C)o2)cc1 | 107 | 111
O=C(Cn1c(=O)nc(-c2ccccc2)c2cc(Cl)ccc21)N1CCN(c2ccccc2F)CC1 | 105 | 107

(next part)
COc1ccc(Nc2ncc(C(=O)Nc3cccc(Cl)c3)c3ccccc23)cc1
  PV pol inh: 94
  PV pol inh intensity: 92
CC(C)OCCCNC(=O)c1ccc(CSc2nc3cccnc3n2Cc2ccccc2)cc1
  PV pol inh: 102
  PV pol inh intensity: 107
CCOc1ccc(OCC)c(NC(=O)c2cnc(SC)nc2-c2ccccc2)c1
  PV pol inh: 106
  PV pol inh intensity: 109
Cc1ccccc1-c1ncnn1-c1sc2c(c1C#N)CCCCC2
  PV pol inh: 108
  PV pol inh intensity: 109
COc1ccccc1N1CCN(CCCNC(=O)c2nnc(Cc3ccc(F)cc3Cl)o2)CC1
  PV pol inh: 102
  PV pol inh intensity: 103
COc1ccc(-c2cc(C(F)(F)F)nc(SCC(=O)N3CCCCC3)n2)cc1OC
  PV pol inh: 107
  PV pol inh intensity: 113
Cc1ccc2c(c1)c1c(c(=O)n(Cc3ccccc3)c(=O)n1Cc1ccccc1F)n2C
  PV pol inh: 104
  PV pol inh intensity: 111
O=C(CSc1ncc(CO)n1Cc1ccccc1)Nc1nc2ccccc2s1
  PV pol inh: 105
  PV pol inh intensity: 101
COc1ccc(-n2ccn(CC(=O)Nc3ccc(C)cc3C)c(=O)c2=O)cc1
  PV pol inh: 104
  PV pol inh intensity: 108
COCCn1c(SCC(=O)c2ccc(F)cc2)nc2cc(C(=O)NC3CCCC3)ccc2c1=O
  PV pol inh: 106
  PV pol inh intensity: 107
CCOC(=O)c1ccc(NC(=O)CSc2nnc3c4ccccc4n(CC)c3n2)cc1
  PV pol inh: 109
  PV pol inh intensity: 111
COc1ccc(NC(=O)CN2C(=O)C3(SCC(=O)N3c3cccc(OC)c3)c3ccccc32)cc1 (centres undefined)
  PV pol inh: 104
  PV pol inh intensity: 112
Cc1ccc(C)c(S(=O)(=O)c2cn(C)c3cc(N4CCCCC4C)c(F)cc3c2=O)c1 (centres undefined)
  PV pol inh: 113
  PV pol inh intensity: 113
